Assay outcomes: PubChem, SRMLSC
H5N1 CPE: antiviral screen in MDCK cells, H5N1 avian flu. 0.07% of 96,000 active. inhibition, % at 50 µM. cytopathic effect, luminescence, 72 h; hits give high values; no value below 0 was filed and about half of the inactive calls have no number; reference of the scale not given here; in the data active means inhibition above about 25%
An asterisk follows results filed as active; i = inactive. Some of the compounds tested; rates above refer to the full screens.

SMILES	H5N1 CPE
Cc1c2c(nc3c(C(=O)NC4CCCCC4C)cnn13)CCCC2 (configuration not stated)	1.6
CCC1CCCCN1C(=O)CSc1nnc(-c2ccc(Cl)cc2)o1 (configuration not stated)	i
Cc1cc(C)n(-c2nc3c(c(=O)[nH]c(=O)n3C)n2C)n1	0.7
COc1ccccc1-n1cnnc1SCC(=O)Nc1ncc(Cl)cc1Cl	0.5
CCOC(=O)C1C(=O)CC(C)(O)C(C(=O)OCC)C1c1cccc(OC)c1 (configuration not stated)	0.9
CCOc1cc(CNc2ccccc2)cc(Br)c1OCc1ccccc1F	0.6
CCOc1ccc(C2=C/C(=C/c3cccnc3)C(=O)O2)cc1	0.0
CC1=C(C(=O)N(C)C)C(c2ccc(Cl)c(Cl)c2)NC(=O)N1 (configuration not stated)	i
O=[N+]([O-])c1cc(Cl)ccc1Sc1cccc2cccnc12	0.3
CN(C)C(=O)COC(=O)c1cc(Cl)cc(Cl)c1N	0.5
CC(=O)c1cc(C#N)c(SCCC(C)C)nc1C	2.2
Cc1[nH]c2ccc(-c3nnc(SCC(=O)c4ccc(F)cc4)o3)cc2c1C	1.3
CCC(C)N1C(=O)CCC1C(=O)N1CCN(c2ccc(F)cc2)CC1 (configuration not stated)	0.5
O=C1CSC(c2ccccc2)N1CC12CC3CC(CC(O)(C3)C1)C2 (configuration not stated)	1.4
O=C(CSc1nc2c(c(=O)n1-c1ccc(Cl)cc1)SCC2)NCc1ccco1	i
Clc1ccc(-c2nnc(SCc3ccon3)o2)c(Cl)c1	14.9
Cc1ccnc(-n2c(C)nc3ccccc3c2=O)c1	i
COc1cc(C(=O)OCC(=O)Nc2ccc(F)cc2F)cc(OC)c1OC	0.7
COCCCNC(=O)c1c(NC(=O)c2ccccc2Cl)n(Cc2ccccc2)c2nc3ccccc3nc12	i
O=C(COCC(=O)Nc1cccc(C(F)(F)F)c1)Nc1cccc(C(F)(F)F)c1	i
Cc1cc(C(F)(F)F)n(-c2nc(C(=O)Nc3ccccc3Oc3ccccc3)cs2)n1	0.2
CCOC(=O)Cc1nnc(NC(=O)C(CC)Sc2nc(C)cc(=O)[nH]2)s1 (configuration not stated)	0.2
COc1ccc(CNC2CCCCC2C)c(OC)c1 (configuration not stated)	i
N#Cc1c(-c2cccc(F)c2)cc(-c2ccccc2)nc1Br	i
CC1CCN(C(=O)CSc2nnc(Cn3c(=O)sc4ccccc43)n2C)CC1	1.0
COc1ccccc1N(CC(=O)NC1CCCC1)C(=O)c1csnn1	0.3
Cc1nc2nc(C)c(CCC(=O)Nc3ccc4c(c3)OCO4)c(C)n2n1	i
CN(C(=O)c1ccc2c(c1)OCO2)C1(C(=O)NC2CCCC2)CCCCC1	2.8
Cc1noc(C)c1CSc1nnc(-c2ccncc2)n1-c1ccc(Cl)c(Cl)c1	2.8
Cc1cc2ccccc2n1CCNC(=O)COc1ccccc1	i
CCc1ccc(NC(=O)CSc2nc3ccccc3c(=O)n2CCCC(=O)N2CCCC2)cc1	i
CCOC(=O)c1ccc(NC(=O)CSC2=NC(=O)C(CC)C(=O)N2)cc1 (configuration not stated)	i
O=C(N/N=C/CCc1ccccc1)c1ccccc1	1.4
Cc1cc(NC(=O)c2cc(-c3cccc(Cl)c3)on2)no1	i
Cc1ccc(Nc2cc(=O)[nH]c(=O)[nH]2)c(C)c1	i
CCOc1cc(NC(=O)CC(C)C)c(OCC)cc1NC(=O)CCn1nnc2ccccc21	0.7
CCC(=O)N1CCN(c2ccc(Cl)cc2NC(=O)c2ccc3c(c2)OCCO3)CC1	i
CN(C)C(=O)N1CCC(C(=O)NCc2ccc(F)cc2)CC1	0.5
c1cncc(-c2nc(NCC3COc4ccccc4O3)c3ccccc3n2)c1 (configuration not stated)	i
Cc1ncc([N+](=O)[O-])n1CCOC(=O)NC(NCc1ccccc1)C(Cl)(Cl)Cl (configuration not stated)	i
CCOc1ccc(OCC)c(C2C(C#N)=C(N)N(c3cccnc3)C3=C2C(=O)CC(C)(C)C3)c1 (configuration not stated)	i
CC(=O)Nc1cc2c(cc1Br)OCCO2	i
COc1ccc(OC)c(NC(=O)Nc2cccc3ccccc23)c1	i
CC(C)(O)c1nnn(-c2ccccc2)c1C(F)(F)F	0.6
COc1ccc(C(=O)Nc2ccccc2C(=O)N(Cc2ccco2)C(C(N)=O)C(C)C)cc1 (configuration not stated)	i
CCOc1ccccc1Oc1c(C)oc2c(CN3CCN(C)CC3)c(O)ccc2c1=O	0.2
CC(=O)c1cccc(NC(=O)c2cc(C(C)C)on2)c1	0.1
O=S(=O)(Cc1ccc(Cl)cc1)N1CCCC1	0.1
COc1cc2cc(C(N)=O)c(N)nc2cc1OC	i
Cc1cc(C)nc(NC(=O)c2c(-c3c(Cl)cccc3Cl)noc2C)n1	i
COc1ccc(N=c2oc3ccc(OC)cc3cc2-c2nc3ccccc3[nH]2)cc1	3.3
CCOC(=O)CSc1nnc(N)s1	0.2
Cc1nnc(SCC(=O)Nc2ccc3c(c2)OCO3)o1	0.2
COc1ccccc1NS(=O)(=O)c1ccc(NC(C)=O)cc1	i
C=CCn1c(SCC(=O)NCc2ccc3c(c2)OCO3)nnc1C1COc2ccccc2O1 (configuration not stated)	0.5
Cc1nc(NCc2ccco2)c2oc3ccccc3c2n1	2.5
CSc1nc2nccc(-c3ccc(Cl)cc3)n2n1	1.0
CCOC(=O)N1CCC(N2C(=O)c3ccccc3C2Nc2cc(Cl)c(OC)cc2OC)CC1 (configuration not stated)	i
Cc1cc(=O)[nH]c2c1cnn2Cc1ccccc1	0.1
COc1ccccc1N1CCN(CCOc2c(OC)cccc2OC)CC1	0.8

Next entries follow.
SMILES	H5N1 CPE
O=C1CCC(=O)N1OCCCCOc1ccccc1	i
COC(=O)c1[nH]c2cccc(OC)c2c1NC(=O)CN1CCC(C(N)=O)(N2CCCCC2)CC1	i
CCCCNC(=O)CS(=O)Cc1nc(-c2ccc(C)cc2)oc1C (configuration not stated)	0.2
CSc1ccccc1N=CC1=C(O)CC(C)(C)CC1=O	0.7
COc1cccc(NC(=O)NC2CCN(Cc3nnnn3Cc3ccc(F)cc3)CC2)c1	i
CCOCCCNC(=O)C(NC(=O)CNC(C)=O)c1ccc(C)cc1 (configuration not stated)	i
O=C(N/N=C/c1ccc(-c2ccccc2[N+](=O)[O-])o1)c1cccnc1	i
COc1ccc(OCC(O)CNC(=O)c2ccc(Br)cc2)cc1 (configuration not stated)	0.6
CCC(C(=O)NCc1ccccc1OC)n1nc(C)n2c(cc3occc32)c1=O (configuration not stated)	1.4
O=C(O)CCC(=O)Nc1ccc(-c2nnc(-c3ccco3)o2)cc1	i
CCc1nn(CC(=O)NCCCN(Cc2ccccc2)C(C)C)c(=O)c2cc3sccc3n12	1.3
CC(NC(=O)CN1CCCC1)C12CC3CC(CC(C3)C1)C2 (configuration not stated)	0.6
C=CCN1C(=O)C(O)=C(C(C)=O)C1c1ccccc1F (configuration not stated)	i
O=C(Cn1ccc2ccccc2c1=O)Nc1ccc2c(c1)OCO2	i
Cc1nn(C)c(Cl)c1NC(=O)OCc1ccc(Cl)cc1Cl	0.1
CC1CCC(N2CCN(c3ncccn3)CC2)CC1 (configuration not stated)	0.0
O=C(Nc1ccc(NC(=O)C2CC2)nc1)c1cccs1	0.7
CN=C(Nc1cc(C)nn1-c1ccccc1)c1ccccc1	0.6
C=CCNc1cc(C)oc(=O)c1C(=O)CCC	0.1
O=C(Cc1ccc(Cl)cc1)NNC(=O)Nc1cccc2ccccc12	i
CC(C)(C)C(=O)Nc1ccc(C(=O)NCc2cccnc2)cc1	1.0
CCOC(=O)C1CCCN(c2c(Nc3ccc(OCC)cc3)c(=O)c2=O)C1 (configuration not stated)	1.6
COc1cc(NC(=O)CCc2c(C)nc3nc(C)nn3c2C)cc(OC)c1	i
O=C(CSc1nc(-c2ccccc2Cl)ns1)NCc1ccco1	1.0
Cc1ccc2cc(CN(Cc3ccco3)C(=O)NCc3ccccc3)c(=O)[nH]c2c1C	1.5
Cc1nnc(SCCN2C(=O)c3ccccc3C2=O)[nH]c1=O	0.5
Cc1cc(C(F)F)n2nc(C(=O)O)nc2n1	0.4
C=C(C)COc1ccc(-c2[nH]ncc2-c2ccccc2OC)c(O)c1	i
NC(=O)c1ccc(C(F)(F)F)n(Cc2ccccc2Cl)c1=O	0.0
COC(=O)c1nnn(-c2nonc2N)c1CSc1ccccn1	1.6
O=C(c1coc2ccccc2c1=O)N1CCN(c2cccc(C(F)(F)F)c2)CC1	i
Cn1c(=O)c2c(nc(NCc3ccco3)n2Cc2ccccc2Cl)n(C)c1=O	5.5
Cc1ccc2nc(SCCCCOc3ccccc3)[nH]c2c1	i
c1cncc(C(c2nnnn2C2CCCC2)N2CCN(Cc3ccc4c(c3)OCO4)CC2)c1 (configuration not stated)	0.9
N#Cc1cc(C#N)c(N2CCN(c3ccccn3)CC2)nc1N	1.2
O=C(Cn1c(CO)nc2ccccc21)Nc1cc(C(F)(F)F)ccc1N1CCOCC1	i
CC(NS(=O)(=O)c1ccc(Br)cc1)C(c1cccs1)N1CCN(C)CC1 (configuration not stated)	i
CCN(CC)C(=O)CSc1nc2ccccc2n1CC(=O)N1CCN(c2ccccc2OC)CC1	i
COc1ccccc1Nc1nc2ccccc2n1C	i
Cc1ccc(N2CCN(C(=S)c3ccc(N(C)C)cc3)CC2)cc1	0.2
O=C(NCCN1CCN(c2ccccc2F)CC1)C1CCCN(S(=O)(=O)c2cnc[nH]2)C1 (configuration not stated)	i
COc1ccc(-c2cc(C(=O)N3CCN(c4ccccc4)CC3)c3ccccc3n2)cc1OC	i
CCOC(=O)Cc1[nH]nc2c1C(c1cc(OC)ccc1OC)C(C#N)=C(N)O2 (configuration not stated)	i
O=C(Cn1ncc2c1-c1ccccc1OC2)N1CCN(c2ccccn2)CC1	1.1
CC1=NN(c2ccc(Br)cc2)C(=O)/C1=C/c1cccs1	i
N#C/C(=C\c1ccc(Sc2nc3ccccc3[nH]2)o1)c1ccccc1	2.7
C=CCn1c(SCC(=O)Nc2sc3c(c2C#N)CCC3)nnc1C1COc2ccccc2O1 (configuration not stated)	0.2
COc1ccc(S(=O)(=O)NCCC(C)C)cc1C	i
O=C(COC(=O)c1ccccc1C(=O)c1ccccc1)c1ccco1	i
CCOC(=O)N1CCN(C(=O)Nc2ccc(Cl)cc2Cl)CC1	i
O=C(CN(Cc1ccc(F)cc1)C(=O)C1CSC(=O)C1)NC1CCCCC1 (configuration not stated)	i
Cc1cccn2cc(CNS(=O)(=O)c3cccc(F)c3)nc12	1.0
OCCCNC(c1ccccc1)c1ccc(O)cc1 (configuration not stated)	i
COc1ccc(C(=O)OCC(=O)NCc2ccco2)cc1OC	i
O=C(Nc1ccccc1)c1cc(N2CCOCC2)nc2ccccc12	0.3
COc1ccc(N2CCN(C(=O)c3ccc(NS(=O)(=O)c4ccc(F)cc4)cc3)CC2)cc1	1.7
CCOC(=O)c1[nH]c2ccccc2c1NC(=O)CC(C)(C)C	2.7
N#CCSc1ncnc2sc3c(c12)CCC3	0.5
CC1(C)CC2CC(C)(CN2C(=O)COC(=O)c2n[nH]c(=O)c3ccccc23)C1 (configuration not stated)	1.9
O=C(Nc1ccc(Cl)c(Cl)c1)N(CCCN1CCOCC1)Cc1cccs1	i

Carrying on.
SMILES	H5N1 CPE
CN(C)S(=O)(=O)n1cnc(-c2ccccc2)c1-c1ccccc1	0.7
O=C(O)c1ccc(-n2nnnc2SCc2ccccc2F)cc1	i
COc1cc(C(c2sc3nc(C)nn3c2O)N2CC(C)OC(C)C2)cc(OC)c1OC (configuration not stated)	3.1
COc1ccccc1N1CCN(C(CNC(=O)Oc2ccccc2)c2cccnc2)CC1 (configuration not stated)	1.1
CCOC(=O)C(CC)Sc1ncnc2c1nnn2-c1ccc(F)cc1 (configuration not stated)	2.1
OC(COc1ccc2c(c1)CCC2)CN1CCN(c2cccc(Cl)c2)CC1 (configuration not stated)	i
O=C(COc1ccccc1)N(Cc1ccco1)C1CCS(=O)(=O)C1 (configuration not stated)	0.4
CCCCN1C(=O)CN(CCc2ccccc2)C(=O)C1c1ccc(OC)cc1 (configuration not stated)	i
CC(C)c1ccc(NC(=O)c2csnn2)cc1	i
Cc1ccc(NC(=O)C2CC(c3ccc(F)cc3)=NO2)cc1 (configuration not stated)	i
Cc1nc(C)c(C(=O)C2=C(O)C(=O)N(CCN3CCOCC3)C2c2cccs2)s1 (configuration not stated)	i
CC(C)c1nc(NCC2CCCO2)c(C#N)c2c1COC(C)(C)C2 (configuration not stated)	3.8
CCc1nn(-c2ccccc2)c(N)c1-c1ccc(OC)c(OC)c1	i
CC(=O)c1c(C(C)=O)c(C)n(-c2nc(-c3cccs3)c(C)s2)c1C	0.9
